Screening results (PubChem BioAssay)
2A firefly: FMDV 2A StopGo reporter, firefly signal | HEK cells with a luciferase reporter of 2A StopGo recoding | Potency, µM (series often up to 57.5 µM), for the others: top-dose signal change, negative = less light | 120,000 compounds, 0.23% hits; active = well fitted falling curve with a large enough effect; inconclusive = small, poorly fitted or top-dose-only effect; inactive = no such curve, though single readings can be large or run the other way; further: nearly all actives have a fitted effect of over 60% in size; overnight with compound
StopGo RLuc: lowers the Renilla signal of an FMDV 2A StopGo reporter | HEK cells with a luciferase reporter of 2A StopGo recoding | Potency, µM (highest dose often 57.5 µM), inactives show top-dose signal change, negative = less light | 120,000 compounds, 0.32% hits | AID 1745857; active means well fitted falling curve with a large enough effect; inconclusive means small, poorly fitted or top-dose-only effect; inactive means no such curve, though single readings can be large or run the other way; further: nearly all actives have a fitted effect of over 55% in size; overnight with compound
* hit, by the source's call; ? = inconclusive; [ ] = another dose, or the depositor's remark. On the % scale 0 is the no-effect control and ±100 the full control effect; potency means the concentration at half of the fitted maximal effect. This is a subset; count on the stated rates, not on these rows.

smiles,2A firefly,StopGo RLuc
COc1ccc(OC)c(Nc2cc(C(=O)NCc3ccccc3)c3ccccc3n2)c1,3.4%,10.8%
CC(NC(=O)c1ccc(Nc2nc3ccccc3n3nnnc23)cc1)c1ccccc1 (centres undefined),31.9%[activator],-4.5%
CCc1ccc(-n2cnc3cc(C(=O)NCc4ccc(C)cc4)ccc32)cc1,-7.2%,113.6%[activator]
O=C(OCC1C(COC(=O)c2ccccc2Cl)C1(Cl)Cl)c1ccccc1Cl (centres undefined),0.0%,10.1%
CCc1c(C)nc2n(c1=O)CN(Cc1cccnc1)CN2c1ccc(F)cc1,11.2%,-8.4%
CCCN(Cc1ccccc1)Cc1cc(=O)oc2ccc(OC)cc12,-9.5%,3.8%
CC(C(=O)Nc1ccc(OC(F)(F)F)cc1)N1CCN(c2ccc([N+](=O)[O-])c3cnccc23)CC1 (centres undefined),-3.1%,-7.6%
CCOc1cccc2sc(N(Cc3cccnc3)C(=O)c3ccco3)nc12,-10.1%,-4.6%
O=C1CC(c2cccc(Cl)c2Cl)c2cc3c(cc2N1)OCCO3 (centres undefined),-5.8%,-2.1%
COc1cccc(Nc2c(-c3cccc(O)c3)nc3cccc(C)n23)c1,37.8%[activator],38.2%[activator]
COc1ccccc1-c1cc(=O)c2cc(NC(=O)c3ccccc3F)ccc2o1,30.6%[activator],4.7%
CN1CCN(CCNC(=O)c2sc3ncccc3c2-n2cccc2)CC1,-2.5%,-2.0%
C#Cc1cccc(OC[C@@H](O)CN2CCC(C(O)(c3ccccc3)c3ccccc3)CC2)c1,-4.9%,-3.5%
COc1ccccc1CCNC(=O)Cc1ccc(NC(=O)N2CCSc3ncccc32)cc1,-2.8%,-4.4%
CCCCCCCCCC(CC)c1ccc(S(=O)(=O)O)cc1 (centres undefined),-8.6%[22.9 µM],-7.7%[114 µM]
CC1CN(CCCOc2ccc(C#N)cc2)CCO1 (centres undefined),17.7%,4.4%
CCOc1ccc(CCNC(=O)c2ccc(-c3nc(CSc4ccccc4)c(C)o3)cc2)cc1,7.7%,-8.0%
CC(OC(=O)c1ccc(CCNS(C)(=O)=O)cc1)C(=O)N1CCOCC1 (centres undefined),0.0%,-9.3%
Cc1cc2nc(-c3ccc(OCc4ccc(F)cc4)cc3)cc(C(F)(F)F)n2n1,-10.5%,-5.6%
CC(C)C(=O)Nc1ccc(NC(=O)Cc2c[nH]c3ccccc23)cc1,-2.1%,-2.9%
Cc1c(C(=O)C(=O)NC(C)c2ccccc2)c2ccccc2n1C (centres undefined),11.9%,47.1%[activator]
CN(CC(=O)Nc1ccccc1OCC(F)(F)F)S(=O)(=O)c1ccc2ccccc2c1,4.2%,15.2%
Cn1nc(C(=O)OCC(=O)Nc2ccc(F)cc2F)c2ccccc2c1=O,15.3%,6.0%
CCc1cccc2c(C(=O)Cn3cc(S(=O)(=O)N4CCCC4)ccc3=O)c[nH]c12,-8.2%,-8.2%
O=C(Cc1ccc(F)cc1)NCc1ccnc(OCc2ccccc2)c1,25.4%,7.4%

Record cards (already shown). Screens in order: 2A firefly	StopGo RLuc
`COc1cccc(Nc2c(-c3cccc(O)c3)nc3cccc(C)n23)c1` is entered as 37.8%[activator]	38.2%[activator]
`O=C1CC(c2cccc(Cl)c2Cl)c2cc3c(cc2N1)OCCO3` (centres undefined) is entered as -5.8%	-2.1%

Filtered by structure, those above with a halogen (9)
smiles,2A firefly,StopGo RLuc
O=C(OCC1C(COC(=O)c2ccccc2Cl)C1(Cl)Cl)c1ccccc1Cl (centres undefined),0.0%,10.1%
CCc1c(C)nc2n(c1=O)CN(Cc1cccnc1)CN2c1ccc(F)cc1,11.2%,-8.4%
CC(C(=O)Nc1ccc(OC(F)(F)F)cc1)N1CCN(c2ccc([N+](=O)[O-])c3cnccc23)CC1 (centres undefined),-3.1%,-7.6%
O=C1CC(c2cccc(Cl)c2Cl)c2cc3c(cc2N1)OCCO3 (centres undefined),-5.8%,-2.1%
COc1ccccc1-c1cc(=O)c2cc(NC(=O)c3ccccc3F)ccc2o1,30.6%[activator],4.7%
Cc1cc2nc(-c3ccc(OCc4ccc(F)cc4)cc3)cc(C(F)(F)F)n2n1,-10.5%,-5.6%
CN(CC(=O)Nc1ccccc1OCC(F)(F)F)S(=O)(=O)c1ccc2ccccc2c1,4.2%,15.2%
Cn1nc(C(=O)OCC(=O)Nc2ccc(F)cc2F)c2ccccc2c1=O,15.3%,6.0%
O=C(Cc1ccc(F)cc1)NCc1ccnc(OCc2ccccc2)c1,25.4%,7.4%

The results go on:
smiles,2A firefly,StopGo RLuc
CCCCCCCCCNc1c2c(nc3ccccc13)CC(C)(C)CC2=O,11.9%,18.6%
CC(C)CCOc1ccc(/C=C(/C#N)c2nc3ccccc3[nH]2)cc1,26.9%,?
CCN(CC)S(=O)(=O)c1cccc(NS(=O)(=O)c2ccc3ccccc3c2)c1,?,97.7%[activator]
CCc1ccc(NC(=O)c2nn(-c3ccc(F)cc3)c(=O)cc2OC)cc1,13.7%,2.8%
CCN(CC)c1ccc(NS(=O)(=O)c2ccc(-c3coc(C)n3)cc2)c(C)c1,1.2%,-5.6%
Cc1ccc2nc(NC(=O)CSc3nccn3-c3ccc(Cl)cc3)sc2c1,-8.5%,3.1%
Cc1cc(C(=O)OCC(=O)Nc2ccc(F)cc2F)c(C)n1C1CC1,47.3%[activator],-5.9%
COc1ccccc1N1CCN(CC(O)COc2cccc3ccccc23)CC1 (centres undefined),1.0%,-15.5%
S=C(NCCc1ccccc1)Nc1ccc(NC(=S)NCCc2ccccc2)c(Cl)c1,171.2%[activator],31.5%[activator]
COc1ccc(NC(=O)CCc2sc(C)nc2-c2cccs2)cc1OC,0.0%,7.1%
Cc1ccc(Cl)cc1NC(=O)CC1Sc2ccccc2NC1=O (centres undefined),-19.9%,-11.4%
O=[N+]([O-])c1cccc(C2C3CCC/C(=C\c4ccco4)C3=NN2c2ccccc2)c1 (centres undefined),-13.2%,2.7%
O=C(CN1CCN(c2ccc(C(F)(F)F)cn2)CC1)NC1CCCCC1,28.2µM*,?
CCN(C(=O)c1cccc(C(N)=O)c1)C1CC1,0.5%,7.1%
COc1cccc(C2CCCN2C(=O)NCCn2ccnc2)c1 (centres undefined),-1.6%,-2.6%
Cc1nc(NC(=O)C(C)C)ccc1I,134.0%[activator],12.3%
Cc1ccc(Cn2c(C)c(CNCc3ccc(OC(C)C)cc3)c(C(=O)O)c2C)cc1,-19.9%,-11.4%
CCN(Cc1cccs1)C(=O)CCc1ccccc1,7.3%,107.3%[activator]
COc1cccc(NC(=O)CSc2nc(=O)n(Cc3ccccn3)c3c2CCC3)c1,0.0%,264.4%[activator]
N#Cc1nc(-c2ccco2)oc1N1CCN(Cc2ccccc2)CC1,3.7%,-11.3%
CCN(C(=O)c1cc2c(Cl)nc3ccc(C)cc3c2s1)c1cc(OC)ccc1OC,12.2%,3.7%
CCc1ccccc1NC(=O)C(=O)c1cc(C)n(-c2ccccc2F)c1C,99.0%[activator],35.8%[activator]
CC(C)(C)N(Cc1ccccc1)C(=O)COc1ncnc2ccccc12,40.7%[activator],-2.0%
CC(=O)Nc1cccc(NC(=O)CC(C)c2ccccc2)c1 (centres undefined),15.9%,-5.8%
Cn1nnnc1NCc1ccc(-c2cccc(Cl)c2)o1,18.8%,214.0%[activator]
CN(CC(=O)NC(N)=O)C(c1ccccc1)c1ccccc1,26.9%,-24.5%
COc1ccc(Nc2ccccc2NC(=O)c2ccccc2Br)cc1,7.0%,72.5%[activator]
COCc1cc(C)nc2sc3c(c12)NCN(c1ccc(C)cc1)C3=O,18.9%,2.2%
O=C(Nc1ccccc1)N1CCCC1c1ccc(Cl)cc1 (centres undefined),-8.6%,-1.6%
NC(=O)c1ccccc1OCc1coc(-c2cccc(F)c2)n1,82.4%[activator],-1.5%
CCN(CC)S(=O)(=O)c1cc(C(=O)Nc2cc3c(cc2C#N)OCO3)ccc1OC,-10.1%,7.4%
CN(C)CCn1c(=O)n(CC(=O)O)c(=O)c2c3c(sc21)COC(C)(C)C3,-9.3%,-7.8%
Cc1ccc(C(=O)NCC(=O)O)cc1C,5.1%,7.7%
CCOC(=O)c1[nH]c(C)c(C(=O)Nc2ccc(Br)c(C)c2)c1C,24.0%,-5.8%
CC(=O)OC(COC1CC2CCC1(C)C2(C)C)C[N+]1(C)CCCCC1 (centres undefined),16.2%,5.2%
CCc1ccc(NC(=O)C(NS(=O)(=O)c2cccc3nsnc23)c2ccccc2)cc1 (centres undefined),-3.9%,141.0%[activator]
Cc1ccc(NC(=O)CN2C(=O)C(C)(C)c3ccccc32)cc1,9.4%,4.3%
CC(SC(C)c1ccc(Cl)cc1)C(=O)NC(N)=O (centres undefined),51.7%[activator],46.9%[activator]
Nc1cccc2[nH]ncc12,21.0%,8.8%
CCc1nnc(NC(=O)CCc2c[nH]c3ccccc23)s1,11.9%,-1.6%
COc1cccc(-c2nc(NC(C)C)c3ccccc3n2)c1O,-22.6%,0.0%
CC(C)Oc1ccc(-c2noc(Cn3cnc4c(oc5ccccc54)c3=O)n2)cc1,48.2%[activator],124.2%[activator]
CCCC1CCC(c2ccc(-c3ccc4c(n3)CCC(CCC)C4)cc2)CC1 (centres undefined),1.1%,2.2%
COc1ccc(C2C(C(N)=O)=C(C)Nc3nc(CCCO)nn32)c(OC)c1 (centres undefined),-1.0%,5.7%
Cc1ccccc1C(=O)NC(C)c1ccc2c(c1)OCO2 (centres undefined),19.6%,15.0%
CC(c1cccc(C(F)(F)F)c1)N(Cc1nc2ccccc2o1)C1CC1 (centres undefined),-2.9%,8.0%
CCOC(=O)C(NC(=O)c1ccc(F)cc1)c1c(C)nn(-c2ccc(F)cc2)c1C (centres undefined),9.3%,11.9%
CCOc1ccccc1NC(=O)c1nnn(-c2cccc(C(F)(F)F)c2)c1N,0.4%,-1.3%
COCCn1c(=O)c2c(nc(-n3nc(C)c(C)c3C)n2Cc2cccc(C)c2)n(C)c1=O,-8.8%,8.3%
CCCCCn1c(-c2cccc(OC)c2)nc2c1c(=O)[nH]c(=O)n2CCCC,12.7%,-0.7%

The listing continues.
smiles,2A firefly,StopGo RLuc
COc1ccc(N2CCN(C(=O)c3nn(-c4ccc(C)cc4)c(=O)n(C)c3=O)CC2)cc1,-0.6%,-11.2%
CCNC(=O)COC(=O)c1cc(-c2ccc(C)o2)nc2ccccc12,86.6%[activator],-0.4%
Cn1c(=O)oc2cc(S(=O)(=O)NCCC(=O)Nc3ccc(F)c(Cl)c3)ccc21,-5.7%,12.2%
C=C(C)CN(CC)C(=O)CCc1cccs1,23.6%,21.9%
CC(=O)C1=C(C)OC(N)=C(C(=O)OCc2ccccc2)C12C(=O)Nc1ccccc12 (centres undefined),2.8%,13.5%
CCc1cc(=O)oc2c(C)c(OCC(=O)NCCN3CCOCC3)ccc12,23.4%,30.7%[activator]
COc1cccc(CSc2nc3ccccc3c3nc(CCn4c(C)nc5ccccc54)nn23)c1,-10.2%,-1.4%
CCn1c2c(c(=O)n3ncc(C(=O)N4CCN(c5ccccc5)CC4)c13)CN(Cc1ccc(OC)cc1)CC2,6.1%,-2.0%
CN(c1ncnc2scc(-c3ccc(F)cc3)c12)C1CCCCC1,1.6%,-3.4%
CCN(C(=O)c1cccs1)c1ccccc1,10.5%,-5.9%
CCOc1ccc(C(c2c(C)[nH]n(-c3ccccc3)c2=O)c2c(C)[nH]n(-c3ccccc3)c2=O)cc1OC,11.3%,-19.0%
COc1ccc(CCNC(=O)c2ccc3c(c2)CCN3S(=O)(=O)c2ccccc2)cc1OC,-23.0%,178.5%[activator]
COC(=O)C1CCCN1S(=O)(=O)c1cc(Cl)ccc1Cl (centres undefined),-12.2%,10.2%
CCN(CC)S(=O)(=O)c1ccc(C(C)NC(=O)c2nn(C)c(=O)c3ccccc23)cc1 (centres undefined),-17.7%,11.1%
O=C(NCCN1CCN(c2ccccc2F)CC1)C1COc2ccccc2C1 (centres undefined),6.1%,-15.4%
Cc1oc(-c2nc(C#N)c(NC(C)C)o2)cc1S(=O)(=O)N(C)Cc1ccccc1,4.6%,0.0%
CCN(CC)C(=O)C1=CC(c2ccc3c(c2)OCO3)=NS(=O)(=O)N1C,10.0%,27.6%
CC(C)CCNC(=O)[C@@H](c1ccccc1)N1Cc2ccccc2C1=O,1.2%,142.5%[activator]
CC(C(=O)NC1CCCC1)N(C)Cc1ccc(C(F)(F)F)cc1 (centres undefined),17.9%,10.6%
COC(=O)c1cccc(NC(=O)NCC2CCN(CCc3ccc(F)cc3)CC2)c1,-6.4%,-14.5%
CCOc1ccc(-c2nc(C#N)c(NCCCOC)o2)cc1,66.7%[activator],46.1%[activator]
CCOc1ccc(CCNC(=O)CCCn2c(=O)c3cccn3c3ccccc32)cc1,-23.3%,-13.0%
C=CCNC(=O)CN1CCC(c2cc3ccccc3[nH]2)CC1,-2.7%,-11.3%
CCOc1ccc(Nc2nc(-c3ccccc3)c(C(=O)Nc3cccnc3)s2)cc1,89.9%[activator],26.6%
COc1ccc(OC)c(NC(=O)c2ccc3c(SCC(=O)O)c4c(nc3c2)CCCC4)c1,-4.8%,-8.8%
COc1ccccc1CN1C(=O)CN(C2CCCCCC2)C(=O)C1c1ccc(C)cc1 (centres undefined),-13.5%,-2.5%
CCOC(=O)Cc1ccc(NC(=O)NCc2cccn2Cc2ccccc2)cc1,-20.5%,-2.7%
